A1 inhib: blocks A1 activity; MEF A1-2A-BIM cells, caspase-Glo luminescence, 3 h; percent of clofoctol signal, DMSO as zero; caspase activation, % (no concentration beside the values); AID 2241; hit rate 0.51% among 21,000;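 active = most replicate scores above 10, or exactly half above 10 with mean activity above 10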;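 note: effector caspase 3 and 7 activity cleaving a DEVD luciferin substrate; 50 nL library stock added to about 30 µL; numbers are from one replicate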
BJeLR viability: BJeLR cell viability reduction; viability loss activity score, % (concentration not given with the values); BJeLR fibroblasts viability, CellTiterGlo ATP luminescence, 48 h; HRASV12, hTERT and SV40 LT/ST transformed; hit rate 0.64% among 30,000; in the data active = viability loss activity score above about 50%; about a fifth of its hits are not listed in these tables;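 note: higher score means fewer live cells and less ATP luminescence; stock transfer was 50 or 100 nL into about 30 µL; 0% = vehicle wells and 100% = a reference killing control; one replicate is shown; the record names a cut of 85%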
* marks the source's active call; other numbers are inactive results; nt = no result given; & = joins results of further samples.

SMILES	A1 inhib	BJeLR viability
C[C@@H]1CN([C@@H](C)CO)C(=O)c2cccc(NS(C)(=O)=O)c2O[C@@H]1CN(C)Cc1ccncc1	nt	0.3
O=C(NCCOc1ccccc1Cc1ccccc1)c1ccc(Br)cc1	-0.5	-1.8
C[C@@H]1CN([C@@H](C)CO)C(=O)c2cccc(NC(=O)C3CC3)c2O[C@H]1CN(C)S(=O)(=O)c1ccc(Cl)cc1	nt	1.2
O=C1OCCN1/N=C/c1ccc([N+](=O)[O-])o1	0.8&-0.1	17&-0.2
O=c1c(S(=O)(=O)c2ccccc2)cn(Cc2ccc(F)cc2)c2ccc(F)cc12	0.0	-2.3
CCN(C(=O)CC(C)(C)C)c1ccccc1	-0.1	0.0
C[C@@H]1CN([C@H](C)CO)C(=O)c2cc(NC(=O)Cc3cn(C)c4ccccc34)ccc2O[C@H]1CN(C)C(=O)Nc1ccc(C(F)(F)F)cc1	-0.1	2.9
C[C@@H]1CN([C@H](C)CO)C(=O)c2cc(N(C)C)ccc2O[C@@H]1CN(C)Cc1ccccc1	-0.5	-2.2
C/C(=N\n1c(-c2ccccc2)n[nH]c1=O)c1ccccc1	0.2	4.8
C[C@H]1CN([C@@H](C)CO)C(=O)c2cccc(NC(=O)c3ccc(-c4nccs4)cc3)c2O[C@@H]1CN(C)Cc1ccc2c(c1)OCO2	nt	-1.6
CCn1c2c(c3cc(OCc4ccccc4)ccc31)CCCC2=O	0.1	4.1
C[C@@H]1CN([C@@H](C)CO)C(=O)c2cc(NS(=O)(=O)c3ccc(F)cc3)ccc2O[C@@H]1CN(C)CC1CC1	0.6	4.8
C[C@@H]1CN([C@H](C)CO)C(=O)c2cccc(NC(=O)C3CC3)c2O[C@@H]1CN(C)Cc1ccc(-c2ccccc2)cc1	nt	2.1
Cc1cc2ncc(-c3ccn(S(=O)(=O)c4ccc(Cl)cc4)c3)nc2cc1C	0.2	4.6
CCN1/C(=C2/SC(=S)NC2=O)Sc2ccccc21	-0.1	0.8
C[C@H]1CN([C@@H](C)CO)C(=O)c2cc(NC(=O)Nc3ccc(F)cc3)ccc2O[C@@H]1CN(C)S(=O)(=O)c1ccc(F)cc1	-0.5	0.8
CC(=O)NC1=NN(C(C)=O)C(C)(CS(=O)(=O)c2ccc(C)cc2)S1 (stereo not given)	0.2	-0.7
CN1CCN(NC(=O)c2ccc(-c3ccccc3)cc2)CC1	0.9	1.1
CCOC(=O)Nc1c[n+](N2CCOCC2)no1	0.3	-4.5
O=S(=O)(C1=CC23CCCC2(C=C(S(=O)(=O)c2ccc(Cl)cc2)C3)C1)c1ccc(Cl)cc1 (stereo not given)	0.0	-2.8
C[C@@H]1CN([C@@H](C)CO)C(=O)c2cccc(NS(=O)(=O)c3ccc(F)cc3)c2O[C@@H]1CN(C)Cc1ccc(-c2ccccc2)cc1	nt	1.6
O=C(CSc1nncn2c1cc1occc12)NCCc1ccccc1	-0.1	-4.8
C[C@H]1CN([C@@H](C)CO)C(=O)c2cccc(NS(=O)(=O)c3ccc(Cl)cc3)c2O[C@H]1CN(C)S(=O)(=O)c1ccc(Cl)cc1	nt	1.5
COc1ccc(NC2CS(=O)(=O)CC2OC(=O)c2ccc(F)cc2)cc1 (stereo not given)	-0.2	-3.4
COc1ccc(NC(=O)Nc2ccc3c(c2)C(=O)N([C@H](C)CO)C[C@@H](C)[C@H](CN(C)S(=O)(=O)c2ccc(OC)cc2)O3)cc1	-0.2	7.4
C[C@@H]1CN([C@H](C)CO)C(=O)c2cccc(NS(C)(=O)=O)c2O[C@@H]1CN(C)Cc1ccccc1	nt	-1.5
CCc1ccc(CNC(=S)Nc2ccc3nc(N4CCCC4)cc(C)c3c2)cc1	nt	0.6
COc1ccc(S(=O)(=O)Nc2ccc3c(c2)C(=O)N([C@@H](C)CO)C[C@H](C)[C@H](CN(C)S(=O)(=O)c2ccc(OC)cc2)O3)cc1	0.4	-3.9
C[C@@H]1CN([C@@H](C)CO)C(=O)c2cccc(NC(=O)Nc3ccc(C(F)(F)F)cc3)c2O[C@@H]1CN(C)C(=O)NC1CCCCC1	nt	2.4
CCC1(C)NC(=S)N(c2ccccc2)N1 (stereo not given)	1.1	1.0
CCOC(=O)c1cc2c(oc1=O)c(I)cc1oc3c(c12)CCCC3	-0.5	1.6
C[C@H](CO)N1C[C@H](C)[C@H](CN(C)Cc2ccccc2)Oc2ccc(NC(=O)Nc3ccc(F)cc3)cc2C1=O	0.2	-3.8
COc1ccc(NC(=O)CC(=O)CSc2ccccc2)cc1	-1.0	-0.1
C[C@@H]1CN([C@@H](C)CO)C(=O)c2cccc(NC(=O)C3CC3)c2O[C@H]1CN(C)Cc1ccc(C(=O)O)cc1	nt	3.0
COc1ccc(NC(=O)N(C)C[C@H]2Oc3c(NS(=O)(=O)c4ccc(C)cc4)cccc3C(=O)N([C@@H](C)CO)C[C@@H]2C)cc1	nt	1.4
Cc1ccc(OCc2ccc(C(=O)N(C)C3CCCCC3)o2)cc1C	-2.0	1.3
CC(C)(C)c1cc(C(=O)N2CCN(c3ccc(C(F)(F)F)cn3)CC2)n(Cc2ccc(F)cc2)n1	0.2	0.8
Cc1ccccc1C(=O)NCCC(C)C	1.1	-1.2
CC1(C)O[C@@H]2C[C@H]3[C@@H]4CCC5=CC(=O)CC[C@]5(C)[C@@]4(F)[C@@H](O)C[C@]3(C)[C@]2(C(=O)CCl)O1	-1.0	-12
CCCNC(=O)Nc1ccc(N2CCC(C(F)(F)F)CC2)nc1	0.4	3.0
O=C(Cc1ccccc1)NC1CCCCCC1	-0.9	-2.5
Cc1ccccc1N/C(=N\S(=O)(=O)c1ccccc1)c1ccccc1	0.0	5.9
COCOc1ccc(C(=O)O)cc1OC	-0.9	3.6
CC(C)NC(=O)Nc1cccc2c1O[C@H](CN(C)C(=O)Nc1cccc3ccccc13)[C@H](C)CN([C@H](C)CO)C2=O	nt	3.0
Cc1ccc(S(=O)(=O)Nc2ccc3c(c2)C(=O)N([C@H](C)CO)C[C@H](C)[C@H](CN(C)C(=O)Nc2ccccc2)O3)cc1	0.6	-0.9
Clc1ccc(CSc2ncc(-c3ccc(Cl)cc3)[nH]2)cc1	0.8	-1.3
O=C(c1cc2c(s1)-c1ccccc1S(=O)(=O)C2)N1CCCC1	-0.2	-1.9
C[C@@H]1CN([C@@H](C)CO)C(=O)c2cc(NS(=O)(=O)c3ccccc3)ccc2O[C@H]1CN(C)Cc1ccc(C(=O)Nc2ccccc2N)cc1	nt	-13
C[C@H]1CN([C@@H](C)CO)C(=O)c2cc(NC(=O)CCC(F)(F)F)ccc2O[C@H]1CN(C)S(=O)(=O)c1ccc(Cl)cc1	0.4	1.7
O=C(Cn1c(=O)c2cccn2c2ccccc21)NC1CCCC1	0.0	-1.0
CCc1ccc(C(=O)Nc2nccs2)cc1	-5.5	9.6
C[C@@H]1CN([C@@H](C)CO)C(=O)c2cc(NC(=O)Cn3cnnn3)ccc2O[C@@H]1CN(C)S(=O)(=O)c1ccccc1	0.4	-0.4
CNC[C@@H]1Oc2c(NS(=O)(=O)c3cccs3)cccc2C(=O)N([C@H](C)CO)C[C@@H]1C	nt	0.7
O=C(c1ccc2c(Cl)c3c(nc2c1)CCC3)N1CCCC1	-0.4	-2.5
O=C(Nc1cccc(Br)c1)C1C(c2ccccc2)=C1c1ccccc1	0.7	1.2
O=C(O)CCc1ccc(-c2ccccc2)n1-c1cccc(O)c1	1.3	-2.2
C[C@@H]1CN([C@H](C)CO)C(=O)c2cccc(NC(=O)c3cnccn3)c2O[C@H]1CN(C)Cc1ccncc1	nt	-0.1
CC1(C)CC[C@]2(C(=O)O[C@@H]3O[C@H](CO)[C@@H](O)[C@H](O)[C@H]3O)CC[C@]3(C)C(=CCC4[C@@]5(C)C[C@@H](O)[C@H](O)[C@@](C)(CO)C5[C@H](O)C[C@]43C)C2[C@@H]1O (stereo not given in full)	-0.7	-1.6
Cc1cccc(-c2nsc(SCC(=O)OCc3ccccc3)n2)c1	-5.7	3.0
C[C@@H]1CN([C@@H](C)CO)C(=O)c2cc(NC(=O)CCN3CCOCC3)ccc2O[C@H]1CN(C)S(=O)(=O)c1ccc(Cl)cc1	0.5	0.9

Part of the list above in another layout:
| structure | A1 inhib | BJeLR viability |
| --- | --- | --- |
| CNC[C@@H]1Oc2c(NS(=O)(=O)c3cccs3)cccc2C(=O)N([C@H](C)CO)C[C@@H]1C | nt | 0.7 |
| O=C(c1ccc2c(Cl)c3c(nc2c1)CCC3)N1CCCC1 | -0.4 | -2.5 |
| O=C(Cn1c(=O)c2cccn2c2ccccc21)NC1CCCC1 | 0.0 | -1.0 |
| C[C@@H]1CN([C@@H](C)CO)C(=O)c2cc(NC(=O)CCN3CCOCC3)ccc2O[C@H]1CN(C)S(=O)(=O)c1ccc(Cl)cc1 | 0.5 | 0.9 |
| O=C(O)CCc1ccc(-c2ccccc2)n1-c1cccc(O)c1 | 1.3 | -2.2 |
| Cc1cccc(-c2nsc(SCC(=O)OCc3ccccc3)n2)c1 | -5.7 | 3.0 |
| CCc1ccc(C(=O)Nc2nccs2)cc1 | -5.5 | 9.6 |

(further entries)
SMILES	A1 inhib	BJeLR viability
Cc1nnc(SC(=O)N2c3ccccc3Sc3ccccc32)s1	-0.1	-15
C[C@@H]1CN([C@@H](C)CO)C(=O)c2cccc(NC(=O)Nc3ccc4c(c3)OCO4)c2O[C@@H]1CN(C)C(=O)Nc1ccc(F)cc1	nt	1.5
c1ccc(-c2nnc(SCC3COc4ccccc4O3)nc2-c2ccccc2)cc1 (stereo not given)	0.9	2.4
O=C(CSc1nnnn1-c1ccccc1F)N1c2ccccc2Sc2ccc(Cl)cc21	0.1	-6.0
C[C@H](CO)N1C[C@H](C)[C@H](CN(C)S(=O)(=O)c2cn(C)cn2)Oc2c(NC(=O)NC3CCCCC3)cccc2C1=O	nt	3.5
CCc1nnc(NC(=O)c2ccc(S(=O)(=O)N3CCCC3)cc2)o1	nt	1.1
CN(C)/C=N/c1nnc(N2CCN(c3cccc(Cl)c3)CC2)s1	nt	-3.7
COc1ccc(CN(C)C[C@H]2Oc3c(NS(=O)(=O)c4ccc(F)cc4)cccc3C(=O)N([C@H](C)CO)C[C@@H]2C)cc1	nt	2.7
Cc1ccc(S(=O)(=O)Nc2ccc3c(c2)C(=O)N([C@H](C)CO)C[C@@H](C)[C@@H](CN(C)C(=O)Nc2c(C)noc2C)O3)cc1	0.1	-0.6
COc1ccc(C)cc1NC(=O)CN(C)S(=O)(=O)c1ccc(Br)s1	nt	-1.5
COc1ccc(NC(=O)N(C)C[C@H]2Oc3c(NC(=O)C4CC4)cccc3C(=O)N([C@H](C)CO)C[C@H]2C)cc1	nt	11
C[C@H]1CN([C@@H](C)CO)C(=O)c2cc(N(C)C)ccc2O[C@H]1CN(C)S(=O)(=O)c1ccc(F)cc1	0.9	-1.8
Cc1noc(C)c1NC(=O)Nc1ccc2c(c1)C(=O)N([C@H](C)CO)C[C@@H](C)[C@@H](CN(C)C(=O)NC(C)C)O2	0.6	-0.1
O=C(Cn1cccc(C(F)(F)F)c1=O)c1ccc(Cl)cc1	-0.5	-4.1
O=C(Nc1ccc2nonc2c1)N1CCOCC1	0.8	-2.3
O=C(O)c1cc2cc(F)ccc2[nH]1	-0.5	-2.8
O=C(Nc1ccc(S(=O)(=O)NC23CC4CC(CC(C4)C2)C3)cc1)C1CC1	0.0	-1.7
C[C@@H]1CN([C@@H](C)CO)C(=O)c2cccc(NS(C)(=O)=O)c2O[C@@H]1CN(C)C(=O)Nc1cccc2ccccc12	nt	-4.9
C[C@H]1CN([C@@H](C)CO)C(=O)c2cccc(NS(=O)(=O)c3ccccc3)c2O[C@H]1CN(C)S(=O)(=O)c1ccccc1	nt	0.2
CSc1nc(C)nc(N/C=C(\C#N)S(=O)(=O)c2ccc(C)cc2)n1	-0.5	1.9
CC(=O)Nc1cc(C(=O)N2CCN(C)CC2)ccc1S(=O)(=O)c1ccc(C)cc1	0.7	-2.9
N#C/C(=C\Nc1cc(C(F)(F)F)cc(C(F)(F)F)c1)S(=O)(=O)Cc1ccc(Cl)cc1	0.0	12
COc1cc(-c2cc(=O)c3c(O)c(OC)c(OC)cc3o2)cc(OC)c1O	1.4	3.0
Cc1noc(C)c1NC(=O)N(C)C[C@@H]1Oc2c(NS(=O)(=O)c3ccc(Cl)cc3)cccc2C(=O)N([C@H](C)CO)C[C@H]1C	nt	7.4
CC(C)NC(=O)Nc1cccc2c1O[C@@H](CN(C)Cc1ccccc1)[C@H](C)CN([C@@H](C)CO)C2=O	nt	2.4
N#Cc1c(NC(=O)C(F)(F)F)sc2c1CCCC2	-5.4	24
CSc1nsc(SCc2ccc(C(=O)Nc3ccc(Cl)cc3)cc2)n1	0.2	6.4
C[C@@H]1CN([C@H](C)CO)C(=O)c2cc(NC(=O)C3CCCCC3)ccc2O[C@@H]1CN(C)Cc1ccccc1	0.7	1.3
C[C@@H]1CN([C@H](C)CO)C(=O)c2cc(NS(=O)(=O)c3ccccc3)ccc2O[C@H]1CN(C)CC1CCCCC1	0.2	-2.0
Cc1cc(C(=O)Nc2cccc3c2O[C@H](CN(C)CC2CC2)[C@H](C)CN([C@@H](C)CO)C3=O)n(C)n1	nt	2.4
Cc1cc(C(=O)Nc2cccc3c2O[C@@H](CN(C)S(=O)(=O)c2ccc(Cl)cc2)[C@@H](C)CN([C@H](C)CO)C3=O)n(C)n1	nt	-1.6

Source: PubChem

Only part of the results is shown; rates above refer to the full screens.
